Compound activity from PubChem BioAssay.
PAX8 reporter = PAX8 transcriptional activity inhibition; hit rate 1.2% among 360,000; inhibition, % at 12.6 µM; RMG-I TPO-luciferase reporter, SteadyGlo, 24 h;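 active means mean replicate inhibition at least 60% with every replicate also reaching 60%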;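 further: luciferase light reporting Pax8 driven TPO promoter activity; plate controls were median of neutral control wells for no effect and mitoxantrone controls for full effect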
C2C12 statin = protects C2C12 myotubes from simvastatin toxicity; ATP luminescence, 48 h; scaled: DMSO 0, geranylgeraniol control 100; rescue of ATP level, % at 7.49 µM; hit rate 0.78% among 330,000;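 active means mean ATP rescue above about 67%, or every replicate alone reaching that limit, limit read from the data, passing the limit was not always enough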;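 further: myotubes were challenged with 10 µM simvastatin during compound exposure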
Cneo AK release = causes C. neoformans cell lysis; AID 651654; adenylate kinase release luminescence, 4 h; normalised: neutral wells 0, clomiphene wells 100; lysis activity, % at 15 µM; hit rate 0.2% among 360,000;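 active means mean lysis activity across replicates of at least 80%, whatever share of replicates individually reach that level; inactive means mean lysis activity below 80%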
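Schedule: static 4 h at 37 °C with compound, 1 h detection; system: C. neoformans cells; benchmarks: Clomiphene as positive control; buffer or medium: fresh YPD medium; measure: luminescence rise reflecting yeast cell lysis; measured by: luminescent adenylate kinase detection reagent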
PGC1a acetyl inh = lowers PGC1a acetylation signal in U2OS cells; inhibition, % at 15.6 µM; AID 651687; hit rate 0.17% among 350,000; AlphaScreen anti-acetyl-lysine; with virally co-expressed GCN5 acetyltransferase;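 active means every replicate shows inhibition of at least 40%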;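 further: 0% = neutral control wells and 100% = positive control wells; some results beyond the cut were filed as inactive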
LGR2 antag = blocks bursicon-induced cAMP signaling via Drosophila LGR2; HEK293 LGR2, CRE-luciferase, bursicon-stimulated, 4 h; inhibition, % at 9.99 µM; hit rate 0.35% among 380,000; AID 720647;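 active means drop in luminescence signal, shown as inhibition above about 50% in the replicate tests, limit read from the data, passing the limit was not always enough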;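 further: agonist challenge used bursicon conditioned medium at about half maximal strength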
PglD inh = blocks C. jejuni PglD acetyltransferase activity; AID 602405; purified PglD enzyme, DTNB colorimetric CoA detection; inhibition, % at 12.5 µM; hit rate 0.098% among 360,000; in the data active means inhibition above about 16%, passing the limit was not always enough; further: strong numbers were not always called active
INS-1E GSIS act = primary screen for activators of insulin secretion dependent on glucose, INS-1E cells, GLuc reporter luminescence | INS-1E GLuc reporter insulin secretion, 2-3 h | activation, % at 16.6 µM | hit rate 0.61% among 370,000 | AID 743287;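 active means lowest replicate activation of at least 40%, so every replicate reaches that level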;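 further: 0% = median of neutral control wells and 100% = median of IBMX positive control wells; some compounds called inactive have numbers as strong as hits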
* hit, by the source's call; . = not tested or not shown.

entry	smiles	PGC1a acetyl inh	PAX8 reporter	LGR2 antag	PglD inh
1	C=CCn1c(CCNC(=O)c2ccccc2F)nnc1SCC(=O)Nc1ccccc1F	0	.	-1	0
2	CCOc1cc(S(=O)(=O)NCCN2CCOCC2)c(C)cc1C	-2	.	.	3
3	COC(=O)c1ccc(C2NC(=S)N(c3ccccc3)C(C)=C2C(=O)Nc2ccccc2OC)cc1 (centres undefined)	-14	-91	.	3
4	COCC(=O)N(C)C[C@H]1Oc2cc(C#Cc3cccnc3)ccc2S(=O)(=O)N([C@@H](C)CO)C[C@@H]1C	0	-6	-4	-3
5	CC1=CCCC(C)(C)C1/C=C/C(C)=N/NC(=O)c1ccncc1 (centres undefined)	-15	6	9	.
6	COc1c2occc2cc2ccc(=O)oc12	5	.	-53	4
7	O=C(N/N=C/c1ccccn1)c1ccc(Br)cc1	.	.	-26	.
8	CS(=O)(=O)c1ccc(-c2csc(-c3cccnc3)n2)cc1	-2	-66	-20	0
9	O=C(CSc1nnc(-c2ccco2)n1-c1ccccc1Cl)Nc1cccc(C(=O)O)c1	2	-2	9	1
10	N#CC1(c2ccc(NC(=O)c3ccccc3)cc2)CCCC1	-3	.	.	2

entry	Cneo AK release	C2C12 statin	INS-1E GSIS act
1	-1	-2	7
2	-2	-3	.
3	3	1	.
4	-6	8	26
5	.	.	2
6	4	7	17
7	.	.	-1
8	-4	4	2
9	2	-5	23
10	0	.	.

Other records follow.
entry	smiles	PGC1a acetyl inh	PAX8 reporter	LGR2 antag	PglD inh
11	C[C@H]1CCCCO[C@H](CN(C)C(=O)NC2CCCCC2)[C@@H](C)CN([C@@H](C)CO)C(=O)c2cc(NC(=O)C3CCCCC3)ccc2O1	-7	44	20	4
12	O=C(CCC(=O)c1cccs1)NCc1cccc(C(F)(F)F)c1	7	3	-1	2
13	C[C@@H]1CCCCO[C@H](CN(C)S(=O)(=O)c2cccs2)[C@H](C)CN([C@H](C)CO)C(=O)c2cc(NS(C)(=O)=O)ccc2O1	-2	15	-16	1
14	CO[C@H]1CN(C)C(=O)c2cc(NS(=O)(=O)CC(F)(F)F)ccc2OC[C@H](C)N(Cc2cccnc2)C[C@H]1C	3	3	12	2
15	Cc1cccc2cc(-c3nc4ccc(C(=O)O)cc4[nH]3)c(=O)oc12	-2	.	.	-9
16	Cc1cccc(/C=N/NC(=O)c2cc(Br)ccc2O)n1	.	0	-28	-5
17	Cc1nn2c(-c3ccccc3)ccnc2c1-c1ccccc1	32	-143	.	-1
18	COC(=O)c1ccc(COC(=O)C2CC(O)CN2S(=O)(=O)c2ccc([N+](=O)[O-])cc2)cc1 (centres undefined)	.	-73	-20	-1
19	N#CC(c1ccccc1F)(c1ncc(C(F)(F)F)cc1Cl)N1CCOCC1 (centres undefined)	0	.	.	0
20	CCOc1ccc(-c2cccc(NC(=O)c3ccco3)c2)nn1	.	-22	-8	2

entry	Cneo AK release	C2C12 statin	INS-1E GSIS act
11	0	2	-15
12	-2	8	-8
13	0	1	-9
14	0	-1	-5
15	-8	-33	.
16	1	10	13
17	-1	.	.
18	-1	5	7
19	4	.	.
20	-1	-12	11

Entries of single compounds from above. Values in the order: PGC1a acetyl inh, PAX8 reporter, LGR2 antag, PglD inh, Cneo AK release, C2C12 statin, INS-1E GSIS act
Results for O=C(CCC(=O)c1cccs1)NCc1cccc(C(F)(F)F)c1 → 7, 3, -1, 2, -2, 8, -8
Results for CO[C@H]1CN(C)C(=O)c2cc(NS(=O)(=O)CC(F)(F)F)ccc2OC[C@H](C)N(Cc2cccnc2)C[C@H]1C → 3, 3, 12, 2, 0, -1, -5
Results for Cc1cccc(/C=N/NC(=O)c2cc(Br)ccc2O)n1 → ., 0, -28, -5, 1, 10, 13
Results for N#CC(c1ccccc1F)(c1ncc(C(F)(F)F)cc1Cl)N1CCOCC1 (centres undefined) → 0, ., ., 0, 4, ., .
Results for Cc1cccc2cc(-c3nc4ccc(C(=O)O)cc4[nH]3)c(=O)oc12 → -2, ., ., -9, -8, -33, .

Following part:
entry	smiles	PGC1a acetyl inh	PAX8 reporter	LGR2 antag	PglD inh
21	C[C@@H]1CN([C@@H](C)CO)C(=O)c2cc(NC(=O)C3CCCCC3)ccc2O[C@@H](C)CCCCO[C@H]1CN(C)C(=O)NC1CCCCC1	-4	8	6	-2
22	CC1=CC(C)(C)N(C(=O)C(C)N2C(=O)c3ccccc3C2=O)c2ccc(C)cc21 (centres undefined)	.	.	2	-1
23	Cc1ccc(CNCc2cc3c(C(C)(C)C)nn(-c4ccccc4)c3[nH]c2=O)cc1	-22	.	-3	-5
24	COc1cccc(C(=O)COc2ccccc2N2C(=O)C3C4C=CC(C4)C3C2=O)c1 (centres undefined)	.	-5	.	.
25	Cc1ccc(NCC(=O)N/N=C\c2ccc([N+](=O)[O-])o2)cc1	-22	.	23	-3
26	O=C(NCc1cccs1)C1(S(=O)(=O)c2ccccc2)CC=CC1	1	-4	-13	-3
27	CCOc1ccc(OCc2ccc(C(=O)N/N=C(\C)c3ccccn3)cc2)cc1	4	21	-20	.
28	CC(C)(C)C(=O)Nc1ccc(C(=O)COC(=O)c2ccccn2)cc1	-5	9	6	-4
29	CCCCN1CNC(=S)N(c2ccccc2OCC)C1	2	-4	-8	-5
30	COc1cc(/C=C/C(=O)O)cc(S(=O)(=O)NNC(=O)c2cc(C)oc2C)c1OC	-1	.	7	-1

entry	Cneo AK release	C2C12 statin	INS-1E GSIS act
21	-1	-50	-20
22	1	-27	-8
23	1	-3	-6
24	.	.	.
25	-2	37	-1
26	5	-8	1
27	.	.	1
28	0	-8	2
29	-2	.	-8
30	0	4	9

(continued)
entry	smiles	PGC1a acetyl inh	PAX8 reporter	LGR2 antag	PglD inh
31	CC(/C=C/c1ccccc1)=N/NC(=O)c1cc([N+](=O)[O-])cc([N+](=O)[O-])c1	-8	-13	7	-3
32	O=C(NCc1cccc(F)c1)[C@H]1[C@H](CO)[C@H]2Cn3c(cccc3=O)[C@@H]1N2C(=O)c1cnccn1	.	0	0	2
33	Cc1cccc(-n2c(SCC(N)=O)nnc2-c2ccccn2)c1C	4	.	.	2
34	O=C(N/N=C/c1ccoc1)c1ccc(Br)cc1	.	-34	-22	1
35	CC(=O)N/C(=C\c1ccccc1)C(=O)OC(C)C(=O)Nc1ccccc1F (centres undefined)	0	5	28	-6
36	CCS(=O)(=O)c1ccc(-c2cccc(NC(=O)c3ccc(Br)o3)c2)nn1	.	-6	11	3
37	Cc1ccc(S(=O)(=O)N(C)C[C@@H]2Oc3c(NC(=O)NC4CCCCC4)cccc3C(=O)N([C@H](C)CO)C[C@H]2C)cc1	-1	-2	-26	1
38	Cc1ccc(SCC(=O)Nc2ccc(S(N)(=O)=O)cc2)cc1	16	-2	-42	.
39	C[C@H](CO)N1C[C@H](C)[C@@H](CN(C)C(=O)Cc2cccnc2)Oc2ncc(C3=CCCCC3)cc2C1=O	1	.	2	5
40	CC1=C(C(=O)Nc2cccnc2)C(c2ccncc2)n2nnnc2N1 (centres undefined)	.	.	.	6

entry	Cneo AK release	C2C12 statin	INS-1E GSIS act
31	1	.	-3
32	15	-20	7
33	-1	-14	.
34	1	7	7
35	0	-6	1
36	-2	-6	-5
37	3	-13	1
38	.	.	-4
39	2	1	6
40	-1	10	.

Next part.
entry	smiles	PGC1a acetyl inh	PAX8 reporter	LGR2 antag	PglD inh
41	Cc1ccc(NC(=O)c2ccc(N/N=C/c3cccc(O)c3)c([N+](=O)[O-])c2)cc1	28	.	.	7
42	CCN(CC)S(=O)(=O)c1ccc2c(c1)N(CC(=O)NCCCN1CC(C)CC(C)C1)C(=O)CO2 (centres undefined)	3	5	4	12
43	C[C@@H]1CN([C@@H](C)CO)C(=O)c2cc(NS(C)(=O)=O)ccc2O[C@@H]1CN(C)S(=O)(=O)c1ccc(F)cc1	2	.	2	-9
44	CC(=O)c1cccc(S(=O)(=O)NC2CCSc3ccccc32)c1 (centres undefined)	5	5	-15	-4
45	Cc1cc(-c2nnc(SCC(=O)Nc3ccccn3)o2)no1	-13	-43	-11	.
46	CCCc1ccc(S(=O)(=O)NCC2CCCN2CC)cc1 (centres undefined)	12	4	-6	1
47	Cc1cc2c(cc1S(=O)(=O)N(C)c1ccccc1)NC(=O)CO2	-1	12	1	4
48	C[C@@H]1CCCCO[C@@H](CN(C)C(=O)NC2CCCCC2)[C@@H](C)CN([C@H](C)CO)C(=O)c2cc(NC(=O)C3CCCCC3)ccc2O1	-9	-20	-8	-6
49	Fc1ccc(-n2ncc3c(SCc4cccnc4)ncnc32)cc1	4	-148	-72	.
50	COc1ccc(CN2CC(C(=O)NCc3ccccn3)CC2=O)cc1 (centres undefined)	8	.	.	7

entry	Cneo AK release	C2C12 statin	INS-1E GSIS act
41	3	-148	.
42	-6	-7	3
43	-2	8	7
44	-1	15	-5
45	.	.	14
46	1	1	-8
47	1	-2	22
48	3	-27	0
49	.	.	5
50	-2	7	.

New compounds follow:
entry	smiles	PGC1a acetyl inh	PAX8 reporter	LGR2 antag	PglD inh
51	O=C(Nc1cccc(-c2cnc3ccccc3n2)c1)c1ccco1	-4	.	.	.
52	COc1ccccc1N1CCN(Cc2nc3ccccc3c(=O)n2CC(C)=O)CC1	3	.	.	-5
53	CN(C)S(=O)(=O)NCc1ccc2c(c1)OCO2	4	-2	.	-5
54	Cc1cc(N/N=C/c2ccccc2[N+](=O)[O-])nc(-n2nc(C)cc2C)n1	1	21	-6	-6
55	COc1ccc(CNC(=O)C[C@H]2CC[C@@H]3[C@@H](COc4ccc(NC(=O)C5CC5)cc4C(=O)N3C)O2)cc1	-12	30	6	3
56	COc1ccc(NC(=O)N(C)C[C@@H]2Oc3ccc(NS(=O)(=O)c4cn(C)cn4)cc3C(=O)N([C@@H](C)CO)C[C@H]2C)cc1	-9	.	-3	-10
57	Cc1ccc(O)c(NC(=S)NC(=O)c2ccccc2Cl)c1	1	2	-12	.
58	CCN(CC)S(=O)(=O)c1ccc2c(c1)N(CC(=O)Nc1cccnc1Cl)C(=O)CO2	7	12	-7	-2
59	COc1ccc(C2=C(C)CC(C)(C)NC2=O)cc1OC	.	.	.	-1
60	COc1cc(C(=O)OC2CCCCC2=O)cc(OC)c1C (centres undefined)	.	.	.	-3
61	Cc1cc(C)c(NC(=S)N2CCCC2C(=O)O)c(C)c1 (centres undefined)	-3	-6	.	.
62	CC(C)NC(=O)Nc1cccc2c1O[C@H](CN(C)Cc1ccc(Oc3ccccc3)cc1)[C@H](C)CN([C@@H](C)CO)C2=O	-4	1	-34	0
63	O=C(Nc1ccccc1Cl)c1ccccc1S(=O)(=O)c1ccccc1[N+](=O)[O-]	.	13	9	.

entry	Cneo AK release	C2C12 statin	INS-1E GSIS act
51	.	2	.
52	0	16	.
53	2	8	.
54	7	.	1
55	16	-9	-12
56	-2	-1	17
57	.	.	-3
58	-1	-1	0
59	-3	11	.
60	0	11	.
61	.	-1	10
62	2	-3	-1
63	.	.	5

Some of the compounds tested; rates above refer to the full screens.
